# Screening results (PubChem)
# V. cholerae QS: Vibrio cholerae quorum sensing activators, luminescence (AID 686977); V. cholerae quorum sensing reporter, luminescence, 6 h; higher luminescence means a stronger effect; most inactives read 0; luminescence at 50 µM unless noted, or EC50 in µM where a hit was titrated; 9,400 tested, under 10 active;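 active means light above mean plus 3 SD and confirmed in a dose series; inconclusive means above that limit without a clear retest; inactive means below it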;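 further: raw light counts without normalisation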
# * hit, by the source's call; ? = inconclusive; [ ] = another dose, or the depositor's remark. These rows are one share of the data, so the mix of outcomes need not match the whole.
SMILES,V. cholerae QS
CCOC(=O)N1CCN(c2c(NCCOC)c(=O)c2=O)CC1,0
O=S(=O)(Nc1ncccn1)c1ccc(Nc2ncnc3ccccc23)cc1,40
C=CCn1c(=N)n(CC(O)COc2ccccc2OC)c2ccccc21 (stereo not drawn),0
CC(C)(C)n1[nH]c2c3c(ccc2c1=O)C(=O)c1ccccc1C3=O,0
CC1CN(C(=O)c2cn3ccccc3n2)CC(C)O1 (stereo not drawn),0
O=C(c1ccc2c(c1)OCO2)N1CCN=C1SCc1cccnc1,0
Cc1csc(NC(=O)CSc2nnc(Cn3c(=O)sc4ccccc43)n2-c2ccccc2)n1,0
CCCCn1c(CCNC(=O)CCC)nc2ccccc21,0
CC(C)(C)OC(=O)NCCc1nnc(SCc2ccccc2Cl)o1,40
Cn1c(C(=O)N2CCCCCC2)cc2c(=O)n(C)c3ccccc3c21,0
COc1ccc(CSCCN)cc1Cl,40
CCOC(=O)C(C(=O)OCC)N(C#N)c1nc(OC)nc(N(C)C)n1,40
CCCNC(=O)CN(CCc1ccccc1)S(C)(=O)=O,40
C[C@]12CCC(=O)C=C1CC[C@@H]1[C@@H]2C(=O)C[C@@]2(C)[C@H]1CC[C@]2(O)C(=O)CO,0[10 µg/mL]
CNC(=O)Nc1ccccc1F,0
CCOc1ccc(-c2nc(-c3ccncc3)no2)cc1OCC,40
CCOC(=O)n1ccc(C(=O)Nc2ccccc2F)n1,40
C=CCn1c(SCC(=O)N2CCN(c3ccc(F)cc3)CC2)nnc1-c1cccs1,0
O=C(CSc1ccc2ccccc2n1)c1ccc2c(c1)OCO2,0
CC1CCN(CC(=O)NCc2ccccc2)CC1,0
CC(=O)N(C)c1ccc(NC(=O)c2cnn(C)c2)cc1,0
C[C@]12CC[C@@H]3c4ccc(O)cc4CC[C@H]3[C@@H]1CC[C@@H]2O,0[10 µg/mL]
CCOC(=O)C1=C(C)Nc2nc(SCC)nn2C1c1ccc(OC)cc1 (stereo not drawn),40
COc1ccc(OC)c(-c2cc(C(=O)Nc3cc(C)n(Cc4ccc(Cl)cc4)n3)no2)c1,280
Cc1[nH]nc2c1C1(C(=O)Nc3ccc([N+](=O)[O-])cc31)C(C#N)=C(N)O2 (stereo not drawn),0
O=C(NCc1ccco1)C1CCN(c2nc3ccccc3n2Cc2ccccc2F)CC1,40
COc1ccc(-n2c(Cc3cccn3C)nnc2SCC(=O)NC2CCCC2)cc1,0
Cc1cc(NC(=O)c2ccccc2NS(=O)(=O)c2c(C)c(C)cc(C)c2C)no1,40
Cc1oc(-c2ccccc2F)nc1CS(=O)CC(=O)NCc1ccc2c(c1)OCO2 (stereo not drawn),720
COC(=O)c1ccc(N2C(=O)CC(Sc3n[nH]c(C)n3)C2=O)cc1 (stereo not drawn),0
CSc1nccc(-c2nn(-c3ccc(C)cc3)ccc2=O)n1,0
COc1ccc(/C=N/NC(=O)c2ccccc2Cl)cc1CSc1nc2ccccc2s1,0
CCc1nnc(NC(=O)c2cc(S(=O)(=O)N(CC)CC)ccc2Cl)s1,40
CCOC(=O)CSC1=C(C#N)C(c2ccc(Cl)cc2)CC(=O)N1 (stereo not drawn),40
COc1ccccc1CNC(=O)COC(=O)c1n[nH]c2ccccc12,0
Cc1nn(-c2cccc(C(F)(F)F)c2)c(Cl)c1/C=N/n1cnnc1,0
Cc1ccccc1C(=O)Nc1cccc(NC(=S)NC(=O)c2cccs2)c1,80
Cc1ccc(S(=O)(=O)N(C)CC(O)Cn2c3ccccc3c3ccccc32)cc1 (stereo not drawn),0
O=C(C1CCC1)N1CCc2cc(S(=O)(=O)NCCN3CCN(c4ccccc4F)CC3)ccc21,40
CCn1c(SCC(=O)Nc2ccc(S(N)(=O)=O)cc2)nnc1-c1cccc(OC)c1,0
O=C(CCn1nnc2ccccc21)Nc1nnc(COc2ccccc2F)s1,0
Cc1ccc(S(=O)(=O)c2c(N)n(Cc3ccco3)c3nc4ccccc4nc23)cc1,40
COc1ccc(C2CC3(CC(C)(C)NC(=O)N3)Oc3cc(O)ccc32)cc1 (stereo not drawn),40
COC(=O)c1ccc(NC(=O)CSc2nnc(COc3ccc4c(c3)CCCC4)o2)cc1,40
CCN1CCN(C(=O)Cn2ncc3ccsc3c2=O)CC1,40
CCN(CC)S(=O)(=O)c1ccc(C(=O)Nc2nnc(C(C)C)s2)cc1,40
COc1ccccc1NC1=NC(C)(C)N=C(N)N1,0
COc1ccc(OC)c(CCNC(=O)Cn2sc3nc(C)cc(C)c3c2=O)c1,40
CCN1CCN(CC(O)COc2ccc(C)c(C)c2)CC1 (stereo not drawn),40
N[C@@H](Cc1ccc(O)c(O)c1)C(=O)O,0[10 µg/mL]
# Next part:
SMILES,V. cholerae QS
O=C(CN1C(=O)NC2(CCCc3ccccc32)C1=O)NCc1ccco1 (stereo not drawn),0
CCN1CCCC1CNC(=O)c1cc2c(-c3ccc(Cl)cc3)nn(C)c2s1 (stereo not drawn),0
COc1ccc(N2C(=O)CSC23C(=O)N2c4c(cccc43)C(C)=CC2(C)C)cc1 (stereo not drawn),40
COc1ccc(NC(=O)CN(C)S(=O)(=O)c2cccc3cccnc23)cc1,0
Cc1ccc(C(=O)N2CCN(c3ccc(NC(=O)c4ccc(Br)o4)cc3)CC2)cc1,40
CCc1nc(SCC(=O)Nc2cc(C)on2)c2c(=O)n(C)c(=O)n(C)c2n1,0
COc1ccc(N2CCN(C(=O)CSc3nc4c(c(=O)n(C)c(=O)n4C)n3C(C)C)CC2)cc1,80
CCCN(CC1CC1)S(=O)(=O)c1ccc(S(N)(=O)=O)cc1,0
CC(C)(C)N1CC(c2nc3ccccc3n2Cc2ccc(Cl)cc2)CC1=O (stereo not drawn),0
Cc1noc(C)c1C(=O)Nc1ccccn1,40

# The final 3 compounds of the part above lead into the next.
SMILES,V. cholerae QS
CCCN(CC1CC1)S(=O)(=O)c1ccc(S(N)(=O)=O)cc1,0
CC(C)(C)N1CC(c2nc3ccccc3n2Cc2ccc(Cl)cc2)CC1=O (stereo not drawn),0
Cc1noc(C)c1C(=O)Nc1ccccn1,40
CC(=O)n1nc(-c2ccc(Cl)cc2)nc1NCc1ccco1,0
Cc1oc(-c2ccccc2F)nc1CS(=O)(=O)CC(=O)NCCN(C)C1CCCCC1,40
Cc1nc(Oc2cccc(Cl)c2)c2oc3ccccc3c2n1,40
COc1ccc(Cl)cc1S(=O)(=O)N1CCN=C1C,240
CCOC(=O)C(=CNc1cc(C)nn1-c1ccc(C)cc1)C(=O)OCC,40
COC(=O)CSc1nc2nc(C)cc(C)n2n1,0
O=C(Nc1ncc(Cc2ccccc2)s1)C1CCCO1 (stereo not drawn),0
CCc1nnc(NC(=O)c2ccc(S(=O)(=O)N(CC)CC)cc2)s1,0
N#Cc1ccc(CSc2nnc(Cc3cccs3)n2Cc2ccco2)cc1,40
Cc1ccc(CN2CCN(C(=O)C3CCC3)CC2)cc1,0
CCOC(=O)N1CCN(c2c(NCc3ccccc3OC)c(=O)c2=O)CC1,0
Cc1cc(NC(=O)COc2cccc(Oc3ccccc3)c2)no1,?
CCOCCCNC(=O)C(c1ccc(C)cc1)N1CCOCC1 (stereo not drawn),0
O=C(Nc1ncc(Br)s1)C1CCCN1S(=O)(=O)c1cccc2cccnc12 (stereo not drawn),120
c1ccc(CCCNc2ncnc3nc[nH]c23)cc1,0
CN1CCN(C(=O)C2CCN(S(=O)(=O)c3ccc4c(c3)oc(=O)n4C)CC2)CC1,80
CCn1c(CC(=O)Nc2ccc(C)c(Cl)c2)nnc1SCC(=O)Nc1nc(C)cs1,0
COc1ccc(/C(N)=N/OC(=O)Oc2ccccc2)cc1,40
CCOC(=O)N1CCN(Cc2nc3c(c(=O)n(C)c(=O)n3C)n2Cc2ccccc2)CC1,200
COc1ccc(-c2nc(Cn3c(SCc4cccc(F)c4)nc4ccncc43)c(C)o2)cc1OC,40
COc1ccccc1N=c1scc(-c2ccc3c(c2)NC(=O)CO3)n1CC1CCCO1 (stereo not drawn),0
COc1ccc(S(=O)(=O)N(C)Cc2cccs2)cc1Br,40
c1ccc2c(c1)oc1c(Nc3ccc4c(c3)OCO4)ncnc12,0
COc1ccc(NC(=O)c2ccc(CNc3c(NC4CCCCC4)c(=O)c3=O)cc2)cc1OC,360
O=C(ON=C1CCN(S(=O)(=O)c2ccccc2)CC1)c1cccc(Cl)c1,0
O=S(=O)(c1ccc(Cl)nc1)N1CCN(Cc2ccc3c(c2)OCO3)CC1,40
COc1ccc(NC(=O)C2CCC(N3C(=O)C4C5C=CC(C5)C4C3=O)CC2)cc1 (stereo not drawn),0
Cc1cc(C)c(S(=O)(=O)Nc2ccc(O)cc2)c(C)c1,?
CCC(C)(C(=O)NC1CCCCC1)N(Cc1ccco1)C(=O)CNC(=O)c1ccccc1 (stereo not drawn),40
COc1ccc(CCC(C)NCCc2ccccc2)cc1 (stereo not drawn),0
CCN(CC)S(=O)(=O)c1ccc(C(=O)NCC(c2cccs2)N2CCOCC2)cc1 (stereo not drawn),0
Nc1ccc(S(=O)(=O)Nc2ccnn2-c2ccccc2)cc1,40[10 µg/mL]
O=C(ON=C1CCN(S(=O)(=O)c2ccccc2)CC1)c1ccc(Cl)cc1,40
Cc1oc(-c2ccccc2F)nc1CS(=O)(=O)CC(=O)N1CCN(Cc2ccccc2)CC1,0
CCc1c(C)nc(SCCOc2ccc(OC)cc2)[nH]c1=O,0
COC(=O)[C@H]1[C@H]2C[C@H]3c4[nH]c5ccccc5c4CCN3C[C@@H]2CC[C@@H]1O,40[10 µg/mL]
COCCNC(=O)c1cn(C)c2ccc(S(=O)(=O)N(C)C3CCCCC3)cc2c1=O,320
COc1ccc(Cc2nc(C(=O)Nc3ccc(F)cc3)cs2)cc1,0
COc1ccc(NC(=O)Cn2c(=O)sc3ccccc32)c(OC)c1,40
O=S(=O)(c1cccc2cccnc12)N(CCO)CCO,280

# Structures shown so far that have a tert-butyl group (3):
SMILES,V. cholerae QS
CC(C)(C)n1[nH]c2c3c(ccc2c1=O)C(=O)c1ccccc1C3=O,0
CC(C)(C)OC(=O)NCCc1nnc(SCc2ccccc2Cl)o1,40
CC(C)(C)N1CC(c2nc3ccccc3n2Cc2ccc(Cl)cc2)CC1=O (stereo not drawn),0

# Remaining list, next part
SMILES,V. cholerae QS
C[C@@H](N)[C@@H](O)c1ccccc1,0[10 µg/mL]
CCCOC(=O)c1ccc(NC(=O)c2cc(OC)c(OC)c(OC)c2Br)cc1,0
O=C(Nc1ccc(S(=O)(=O)N2CCCCC2)cc1)c1cnccn1,0
CCCC(=O)C1CCN(Cc2ccccc2)CC1,0
CCOCCOC(=O)C1=C(C)N(C)C(=O)NC1c1cc(Cl)c(O)c(OC)c1 (stereo not drawn),40
CCc1nc(SCc2ccccn2)c2c(=O)n(C)c(=O)n(C)c2n1,0
CCCN(CCC)C(=O)c1c(C)[nH]c(C(=O)OCC)c1C,0
Cc1ccc(-c2nn3c(C)nnc3s2)cc1NC(=O)COc1ccc(Cl)cc1,0
Cc1n[nH]c(=O)[nH]c1=O,0[10 µg/mL]
CN(C(=O)c1ccccc1NC(=O)C(F)(F)F)c1ccccc1,0
Cn1cccc1Cc1nnc(SCC(=O)N2CCOCC2)n1-c1ccc(F)cc1,200
CC(=O)N=c1sc(S(N)(=O)=O)nn1C,40[10 µg/mL]
CC(C)(C)C(=O)C(CO)(Oc1ccc(Cl)cc1)n1cncn1 (stereo not drawn),0
Cc1ccc(NC(=O)Cn2cc3c(n2)CCC(C)C3)cc1 (stereo not drawn),0
COc1cccc(OC)c1OCCCc1c(C)n[nH]c1C,0
CCOC(=O)c1c(N)sc2c1CCSC2,0
CCN(CC)CCCC(C)Nc1c2ccc(Cl)cc2nc2ccc(OC)cc12 (stereo not drawn),40[10 µg/mL]
O=c1[nH]c2c(c(=O)n1Cc1ccccc1)CCC2,40
CCOCCCNCC(=O)Nc1ccc(OC(F)(F)F)cc1,0
COc1ccc(CNC(=O)COC(=O)c2ccc3c(c2)OCCO3)cc1,0
CCCCCCNC(=O)C(C#N)c1nc2ccccc2nc1N1CCCC1 (stereo not drawn),0
Cc1c(NC(=O)C2CCCN2S(=O)(=O)c2cccc3nsnc23)cccc1C(=O)O (stereo not drawn),0
CC[C@H]1CN2CCC1C[C@H]2[C@H](O)c1ccnc2ccc(OC)cc12 (stereo partly drawn),0[10 µg/mL]
COc1cc(NC(=O)Cn2nc(Cc3cccnc3)c3ccccc3c2=O)cc(OC)c1OC,0
CCCS(=O)(=O)N1CCN(C(=O)c2cccnc2)CC1,0
Cc1cccc2c1nc(-c1ccccc1)n1cnnc21,40
CC(Cc1ccc(O)cc1)NCC(O)c1cc(O)cc(O)c1 (stereo not drawn),0[10 µg/mL]
Cn1cccc1Cc1nnc(SCC(=O)N2CCc3ccccc32)n1CCc1ccccc1,0
Cc1cccc(NC(=O)C2CC(O)CN2C(=O)OCc2ccccc2)c1 (stereo not drawn),40
CCOc1ccc(Br)cc1C1C(C(=O)OC)=C(N)Oc2cc(N(C)C)ccc21 (stereo not drawn),0

# Exported field by field: entries from further up.
SMILES: C[C@@H](N)[C@@H](O)c1ccccc1
  V. cholerae QS: 0[10 µg/mL]

SMILES: CCCOC(=O)c1ccc(NC(=O)c2cc(OC)c(OC)c(OC)c2Br)cc1
  V. cholerae QS: 0

# Four entries picked at random from those above:
SMILES,V. cholerae QS
CCOc1ccc(Br)cc1C1C(C(=O)OC)=C(N)Oc2cc(N(C)C)ccc21 (stereo not drawn),0
Cc1cccc(NC(=O)C2CC(O)CN2C(=O)OCc2ccccc2)c1 (stereo not drawn),40
Cn1cccc1Cc1nnc(SCC(=O)N2CCc3ccccc32)n1CCc1ccccc1,0
CCCS(=O)(=O)N1CCN(C(=O)c2cccnc2)CC1,0

# (listing goes on)
SMILES,V. cholerae QS
COc1ccc(-c2cc(C(=O)N3CCN(c4ccccc4)CC3)no2)cc1OC,0
CN1[C@@H]2CC[C@H]1CC(OC(=O)[C@H](CO)c1ccccc1)C2 (stereo partly drawn),0[10 µg/mL]
CCN(CC)CCCNc1nc2ccccc2[nH]1,0
O=C(c1ccco1)N1CCN(C(=O)c2cc3c(s2)-c2ccccc2OC3)CC1,0
O=C(COC(=O)c1ccccc1NC(=O)c1ccco1)NC1CCCCC1,40
